Screening data: PubChem, ICCB-Longwood Screening Facility, Harvard Medical School
Sa helicase inh – inhibitors of S. aureus replicative helicase, primary screen, biochemical, fluorescence unwinding readout; inhibition, %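 (tested at about 80 µM)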; replicative DNA helicase (DnaC/DnaB), Staphylococcus aureus; actives 0.05% (n = 120,000); AID 485395, 2010; purified S. aureus helicase, fluorescence unwinding assay; about half of the hits fall short of the stated cut;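 active = both duplicates at 50% or more, or one of them with a favoured structure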;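 also: 0% = mean of negative control wells and 100% = mean of positive control wells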
MgrA-DNA mod – S. aureus MgrA activity modulators, primary screen, biochemical, S. aureus Newman, fluorescence polarization. actives 0.13% (n = 84,000). MgrA-DNA binding. AID 602314, 2012. inhibition, %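 (about 10 µg/mL by stock and volumes)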;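 active = above 50% in either of two replicates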;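 also: 0% = protein plus DNA without compound and 100% = DNA alone without protein; higher means less MgrA bound to DNA so lower polarization; one replicate is shown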
Numbers without * were called inactive; · = no result given; & = joins results of further samples. This is a subset (hit frequency here may not be typical).

| structure | Sa helicase inh | MgrA-DNA mod |
| --- | --- | --- |
| O=C(O)CCN1C(=O)/C(=C/c2ccc(-c3ccc(Cl)cc3Cl)o2)SC1=S | -2.0 | 47.9 |
| O=C(Oc1ccc(-c2nnco2)cc1)c1oc2ccccc2c1COc1ccccc1 | -5.0 | · |
| CC1=C(C#N)C(C(F)(F)F)(C(F)(F)F)N=C(C2CCCCC2)N1 | -5.0 | -4.7 |
| COC(=O)c1sc(C(F)(F)F)c(-c2ccccc2)c1N | · | -1.3 |
| O=C1c2cccc(Cl)c2C(=O)c2cccc(Cl)c21 | · | -2.9 |
| CCCCn1c(SCC(=O)Nc2ccccc2)nc2ccccc2c1=O | 18.0 | -0.4 |
| Cn1c(=O)c2c(nc(SCSc3nc4c(c(=O)n(C)c(=O)n4C)n3C)n2C)n(C)c1=O | 0.0 | -1.1 |
| Cc1cc2ncn(CCC3CCCCC3)c2cc1C | 16.0 | 0.9 |
| O=C1C2C3C=CC(O3)C2C(=O)N1c1cc([N+](=O)[O-])ccc1Cl (stereo unspecified) | · | -2.8 |
| CC(=O)N(/C=C1\Sc2ccccc2C1=O)c1ccc(C)c(C)c1 | -23.0 | -3.5 |
| CCc1ccc2c(c1)c1n[nH]c(=S)nc1n2CC | -27.0 | · |
| COC(=O)c1cc(NCc2ccccc2)ccc1N1CCOCC1 | 16.0 | -0.8 |
| Cc1ccsc1C=Nc1ccccc1C(=O)c1ccccc1 | 2.0 | -1.2 |
| O=C(Nc1ccccc1Oc1ccc(Cl)cc1Cl)C(Cl)(Cl)Cl | · | -0.5 |
| CCOc1ccccc1Nc1ncnc2c1cnn2-c1ccccc1 | 4.0 | · |
| O=C(NC1=NCCCN1)c1c(Cl)cccc1Cl | · | 0.0 |
| Cc1cccn2c(=O)c(/C=N/NC(N)=O)c(NCc3ccco3)nc12 | -17.0 | · |
| Cc1oc2cc(OC(C)C)ccc2c(=O)c1Oc1ccccc1 | 11.0 | 0.1 |
| Cn1cnc2c(oc3ccccc32)c1=O | 15.0 | · |
| N/C(=N\NC(=O)Nc1ccccc1)c1ccccn1 | · | 2.6 |
| C(=N\c1sc2c(c1-c1nc3ccccc3s1)CCCC2)/c1ccco1 | -5.0 | · |
| COc1ccc(Br)cc1/C=C/C(=O)Nc1ccc(F)cc1F | · | -2.1 |
| CC1=NC(C(F)(F)F)(C(F)(F)F)C(C#N)=C(C)N1 | 26.0 | · |
| Cc1ccc(N2CC(c3nc4ccccc4[nH]3)CC2=O)c(C)c1 (stereo unspecified) | -20.0 | · |
| c1cc2c(cc1NC1CC3CCC1C3)OCO2 (stereo unspecified) | 9.0 | 1.9 |
| CN1CCN(C2=Nc3cc(Cl)ccc3Nc3ccccc32)CC1 | · | 2.1&-1.1&5.2 |
| O=C(CSc1ncccc1C(=O)O)c1cccc(C(F)(F)F)c1 | -15.0 | · |
| COc1ccc(CC2CCC(=NOC(=O)c3ccc(C(C)(C)C)cc3)CC2)cc1 (stereo unspecified) | · | 1.6 |
| COc1cccc(/C=C2\SC(=O)N(CCC(=O)O)C2=O)c1 | -1.0 | · |
| Cc1ccc2cc3c(nc2c1)N(c1ccc(C(=O)NCc2ccco2)cc1)CC3 | 8.0 | 3.1 |
| CSC1=N/C(=C\c2ccc(C)o2)C(=O)S1 | 3.0 | · |
| O=c1oc2ccccc2cc1NCc1ccccc1O | -2.0 | · |
| CCN=c1scc(-c2cccs2)n1/N=C(\C)CC | -44.0 | · |
| CCOC(=O)N1CCC(=NNc2nc3ccccc3s2)CC1 | 12.0 | · |
| O=C(N/N=C/c1ccco1)c1ccc(Br)o1 | 12.0 | 2.4 |
| Cc1cc(C)nc(Nc2ccccc2C(=O)O)n1 | 18.0 | · |
| O=C1c2cc([N+](=O)[O-])ccc2-c2ccc([N+](=O)[O-])cc21 | · | -2.0 |
| COc1ccc(C2Nc3ccccc3C(=O)N2c2cccc3ccccc23)cc1COc1ccccc1F (stereo unspecified) | · | 3.9 |
| Cc1onc(-c2c(Cl)cccc2Cl)c1/C=N/O | · | -2.6 |
| O=C(Nc1ccccc1-c1nc2ccccc2[nH]1)c1ccc(Cl)cc1 | · | -0.7 |
| COc1ccc(NC(=O)CCNS(=O)(=O)c2cccc3nonc23)cc1Cl | 12.0 | · |
| CCn1c(CSc2ncccn2)nnc1SCC(=O)N1CCCCC1 | -3.0 | -0.8 |
| CCCCCOC(=O)C1=C(C)NC(=O)NC1c1cccc(OCc2ccccc2)c1 (stereo unspecified) | · | -1.0 |
| Cc1nc(C(F)(F)F)ccc1C(=O)N1CCCCC1 | · | -3.0 |
| Cc1cccc(Nc2nc(N)nc(CSc3nccn3C)n2)c1 | 9.0 | · |
| O=c1nc2n(c3ccccc13)Cc1ccccc1-2 | 14.0 | · |
| O=S(=O)(NCc1csc2ccc(Cl)cc12)c1cccs1 | · | -2.2 |
| Cc1c(O)ccc2c(=O)c(-c3ccccc3Cl)coc12 | 3.0 | 0.1 |
| CC1(C)Cc2c(sc3nc(Nc4ccccc4)[nH]c(=O)c23)CO1 | 6.0 | 6.1 |
| Cc1cc(C(F)(F)F)c2c(C)cc(=O)n(C)c2n1 | -1.0 | · |
| CC(C)(C)c1cc(C(=O)N2CCc3ccccc3C2)ccn1 | 7.0 | 0.0 |
| O=C(NCc1ccc(S(=O)(=O)NCCc2ccccc2)s1)c1ccccc1 | · | -1.0 |
| NNC(=O)COc1ccccc1 | · | -0.9 |
| COc1ccc(C2C(C#N)=C(N)OC3=C2CCCC3)cc1 (stereo unspecified) | 20.0 | · |
| S=c1[nH]nc(-c2ccc3c(c2)OCO3)o1 | 8.0 | · |
| COc1ccc(C(OCC(O)CN2CCC(C(N)=O)CC2)c2ccc(OC)cc2)cc1 (stereo unspecified) | 3.0 | · |
| c1csc(C2CC3(CS2)Nc2ccccc2S3)c1 (stereo unspecified) | · | 3.4 |
| CCC1(C)CC2=C(CO1)Cc1c(nc(SCC(=O)Nc3ccc(C)cc3)n(-c3ccccc3)c1=O)N2 (stereo unspecified) | 29.0 | · |
| O=S(=O)(Cc1nc2ccccc2s1)c1ccccc1 | -9.0 | -2.1 |
| Cc1ccc2cc(CCNC(=O)c3ccc(Cl)cc3Cl)c(=O)[nH]c2c1 | 3.0 | 5.5 |

(further entries)
| structure | Sa helicase inh | MgrA-DNA mod |
| --- | --- | --- |
| CCOc1ccc2nc(NCCCNS(=O)(=O)c3ccccc3)c(C#N)cc2c1 | 1.0 | 2.5 |
| COC(=O)c1cc(OC)c(OC)cc1-n1c(C)ccc1C | · | -0.1 |
| O=C(NCCc1c[nH]c2ccccc12)Nc1ccccc1 | 25.0 | 3.4 |
| Cc1cc(Oc2ccc3c(c2)OCO3)nc2ccccc12 | 30.0 | · |
| O=C(O)C1CN(C(c2ccccc2)c2ccccc2)C1 | · | -1.2 |
| CCOc1ccc(CC(=O)NCc2cn(C)nc2C)cc1OCC | 5.0 | · |
| OCC#CCSc1nc2ccccc2n1Cc1ccccc1 | -21.0 | · |
| O=C(Nc1nc(-c2ccccc2)nc2c1C(=O)CCC2)c1ccccc1 | -20.0 | 0.3 |
| Cc1ccc(S(=O)(=O)NCCC#N)cc1 | -12.0 | · |
| c1csc(CNc2nc(-c3cccs3)nc3ccccc23)c1 | -11.0 | · |
| CC1(C)Cc2ccccc2C(C(Cc2ccccc2)C(N)=O)=N1 (stereo unspecified) | -2.0 | -0.2 |
| Oc1ccccc1C1OCC(C2CC=CCC2)CO1 (stereo unspecified) | -2.0 | 1.4 |
| COc1ccc(N2C(=O)/C(=C\c3ccco3)N=C2SCC(=O)c2cc(C)n(C)c2C)cc1Cl | -6.0 | · |
| O=C(O)CCn1c(SCCOc2ccccc2)nc2ccccc21 | 4.0 | 1.8 |
| Cc1cc(C)c2c(c1)/C(=N\OCC(=O)N1CCCc3ccccc31)C(=O)N2 | 4.0 | · |
| O=C(NCc1ccccc1)C(c1ccco1)N(C(=O)c1csnn1)c1ccccc1 (stereo unspecified) | 2.0 | -1.9 |
| CN1CCCN(C(=O)C2CCCCN2S(=O)(=O)c2ccccc2)c2nc3ccccc3nc21 (stereo unspecified) | -2.0 | · |
| CCOc1ccc2nc(N3CCC(C(=O)N4CCCC4)CC3)sc2c1 | 16.0 | · |
| Cc1cc(NC(=O)C(C)C)nc2c1c(=O)oc1ccccc12 | 13.0 | -1.4 |
| Cc1ccc(Nc2ccc(NCc3ccccc3)nn2)cc1C | 2.0 | 0.9 |
| O=C(/C=C/c1ccc(Cl)cc1)OCC(=O)c1ccccc1 | -12.0 | -1.7 |
| Cc1nc2ccc(NC(=O)c3ccc(Cc4ccccc4)cc3)cc2s1 | · | -2.5 |
| O=[N+]([O-])c1cc(Cl)c(-n2cccc2)cc1Sc1nc(-c2ccccc2)c(-c2ccccc2)o1 | · | -0.7 |
| Cc1ccc(-c2cc(C(=O)N3C(C)CCCC3C)[nH]n2)cc1 (stereo unspecified) | 9.0 | -5.2 |
| Cc1csc(=O)n1CCC(=O)OCC(=O)NC1CCS(=O)(=O)C1 (stereo unspecified) | -10.0 | · |
| CCSc1nnc(C2CCCN(C(=O)NCc3ccccc3)C2)n1C (stereo unspecified) | 19.0 | 0.2 |
| C=CCn1c2ccccc2c2nn(C)c(=S)nc21 | · | -0.9 |
| Cc1cc(N)n(-c2ncnc3sc4c(c23)CCCC4)n1 | 17.0 | -5.8 |
| CC(NC(=O)NC1CCCCC1)C(c1ccccc1)N1CCOCC1 (stereo unspecified) | 4.0 | · |
| Cc1ccccc1C(=O)c1cccn1CC(=O)NCCCN1CCOCC1 | 6.0 | · |
| CCOC(=O)Cn1c(=O)c2cnc3c(c(C)nn3C)c2n1C | · | -2.3 |
| O=C(NC1CCCCC1)N1CCCCCCC1 | 8.0 | 2.9 |
| CCCCn1c(C)c(C)c(S(=O)(=O)c2ccccc2)c1N | -22.0 | · |
| CCOC(=O)Cn1c(=O)n(CC(=O)OCC)c2ccccc21 | 11.0 | · |
| O=C(NCc1ccc2c(c1)OCO2)c1ccsc1 | · | -2.4 |
| COc1ccc(/C(O)=C2\C(=O)C(=O)N(CCCN(C)C)C2c2cc(OC)c(OC)c(OC)c2)cc1Cl (stereo unspecified) | 22.0 | 1.1 |

Brought forward from above: 5 compounds, then new ones.
| structure | Sa helicase inh | MgrA-DNA mod |
| --- | --- | --- |
| O=C(NC1CCCCC1)N1CCCCCCC1 | 8.0 | 2.9 |
| CCCCn1c(C)c(C)c(S(=O)(=O)c2ccccc2)c1N | -22.0 | · |
| CCOC(=O)Cn1c(=O)n(CC(=O)OCC)c2ccccc21 | 11.0 | · |
| O=C(NCc1ccc2c(c1)OCO2)c1ccsc1 | · | -2.4 |
| COc1ccc(/C(O)=C2\C(=O)C(=O)N(CCCN(C)C)C2c2cc(OC)c(OC)c(OC)c2)cc1Cl (stereo unspecified) | 22.0 | 1.1 |
| Cc1ccc(Cn2cc3c(n2)-c2c(oc(C(=O)Nc4cc(C)ccc4C)c2C)CC3)cc1 | 18.0 | · |
| CCCCn1c(CCCNC(=O)C(C)(C)C)nc2ccccc21 | 10.0 | · |
| CCOc1cccc2cc(-c3nc4ccccc4s3)c(=O)oc12 | -7.0 | 3.3 |
| CCOc1cc(/C=N/n2c(C)csc2=NC(C)C)ccc1O | -3.0 | · |
| Cc1ccc(F)c(NC(=O)C2CCCCC2C(=O)O)c1 (stereo unspecified) | 6.0 | 6.9 |
| Cc1ccc2c(c1)C(c1ccccc1)CC(C)N2S(=O)(=O)c1cccc(Cl)c1 (stereo unspecified) | 8.0 | 0.6 |
| O=C(Nc1nccs1)c1cccc(S(=O)(=O)N2CCc3ccccc32)c1 | 9.0 | · |
| C=CCn1c(=O)[nH]c2nc3cc(N=CN(C)C)ccc3nc2c1=O | -93.0 | · |
| Cc1noc(C)c1NC(=O)NCc1csc(-c2cccs2)n1 | 16.0 | · |
| COc1cccc(C(=O)N(CCCN2C(=O)c3cccc4cccc(c34)C2=O)c2ccccc2)c1 | · | -1.0 |
| CC(=O)Nc1cccc(OCCCNS(=O)(=O)c2ccc(F)cc2)c1 | -18.0 | · |
| C=CCn1c(=O)c2ccc(C(=O)NCc3ccccc3)cc2n(CC(=O)n2nc(N)cc2C)c1=O | 8.0 | -0.6 |

3 records picked at random from those above, as already listed:
| structure | Sa helicase inh | MgrA-DNA mod |
| --- | --- | --- |
| CCCCn1c(CCCNC(=O)C(C)(C)C)nc2ccccc21 | 10.0 | · |
| C=CCn1c(=O)[nH]c2nc3cc(N=CN(C)C)ccc3nc2c1=O | -93.0 | · |
| C=CCn1c(=O)c2ccc(C(=O)NCc3ccccc3)cc2n(CC(=O)n2nc(N)cc2C)c1=O | 8.0 | -0.6 |

Remaining list, next part
| structure | Sa helicase inh | MgrA-DNA mod |
| --- | --- | --- |
| CCOC(=O)C1=C(N)OC2=C(C(=O)CCC2)C1c1cccc(Br)c1 (stereo unspecified) | · | 0.2 |
| CC(Nc1ccccc1)C(=O)N1CCc2ccccc21 (stereo unspecified) | 5.0 | · |
| C=CCn1c(=O)n(CC=C)c(=O)n(Cc2ccc(C#N)cc2)c1=O | 20.0 | · |
| Cc1cnn(C(=S)NCc2ccc(Cl)cc2)c1 | -8.0 | -12.2 |
| Cc1cc(C(C)(C)C)cc(C)c1C(=O)O | · | -4.3 |
| O=C(Nc1cccc(C(F)(F)F)c1)c1ccc(Cl)cc1 | · | -0.6 |
| Cc1ccccc1C(=O)NC1CCN(Cc2nnnn2Cc2ccccc2)CC1 | -3.0 | -1.1 |
| Cc1cc(NC(=O)CC(C)CC(=O)O)no1 (stereo unspecified) | · | 0.5 |
| N#Cc1cccc(CSc2ccccn2)c1 | · | -3.6 |
| O=C(Cn1c(=O)c2c(ncn2Cc2ccccc2)n(Cc2ccccc2)c1=O)N1CCCC1 | -12.0 | · |
| CCC(CC)C(=O)c1c[nH]c(C(=O)OC)c1 | · | -2.0 |
| Cn1nc(C(F)(F)F)cc1Cl | 10.0 | -0.7 |
| CCOC(=O)c1sc(SC)c(C#N)c1N | · | 2.9 |
